Screens from PubChem.
HSD17B inhib = blocks hydroxysteroid 17-beta dehydrogenase activity; 75,000 tested, 7.6% active; AID 893; Q99714; recombinant HSD17B10, NADH fluorescence kinetic; many of its hits are not listed in these tables; Potency, µM (doses to about 57.1 µM), inactives show at the highest dose activity change, negative = inhibition, usual class: inhibitors; active means well fitted inhibition curve with a large enough effect; inconclusive means small, poorly fitted or top-dose-only effect; inactive means no such curve, though single readings can be large or run the other way;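 further: the protocol describes HADH2 (HSD17B10) and not the HSD17B4 of the title; nearly all actives have a fitted effect of over 70% in size; most hits overshoot -100% by far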
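Enzyme plus compound, 15 min room temperature; substrate mix added (NAD+ 1 mM, beta-hydroxybutyryl-CoA 90 uM final); plates read kinetically for NADH fluorescence. HADH2 was His-tagged, E. coli-derived, 20 nM.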
The depositor's hits bear a star; ? = inconclusive; [ ] = remark or other dose. On the % scale 0 is the no-effect control and ±100 the full control effect; potency means the concentration at half of the fitted maximal effect.

Start of the data: the first three entries, to show the layout:
SMILES,HSD17B inhib
CCOC(=O)C1C(c2cccc(Cl)c2Cl)NC(=O)NC1(O)C(F)(F)F (stereo not drawn),7%
CCC(C)C(N)C(=O)NC(CCC(=O)OCc1ccccc1)C(N)=O (stereo not drawn),6%
Cc1ccc(NC(=O)CCC(=O)OCC(F)(F)C(F)F)cc1,8%

Main list, from the start:
SMILES,HSD17B inhib
CCOC(=O)C1C(c2cccc(Cl)c2Cl)NC(=O)NC1(O)C(F)(F)F (stereo not drawn),7%
CCC(C)C(N)C(=O)NC(CCC(=O)OCc1ccccc1)C(N)=O (stereo not drawn),6%
Cc1ccc(NC(=O)CCC(=O)OCC(F)(F)C(F)F)cc1,8%
Cc1ccc(C(=O)NCC2CCCO2)o1 (stereo not drawn),-9%
COc1ccc(C(c2nnnn2C2CCCCC2)N2CCN(c3ccc(OC)cc3)CC2)cc1 (stereo not drawn),6%
CCc1nnc(NC(=O)CSc2nnc(-c3ccncc3)n2Cc2ccccc2)s1,?
COc1ccc(OC)c(-c2cc(C(=O)NCCCn3ccnc3)no2)c1,1%
C=CCn1c(SCC(=O)Nc2ccc(NC(=O)c3ccco3)c(OC)c2)nnc1-c1ccncc1,-4%
O=C(COc1ccc(Cl)cc1)NCc1nnc(SCC(=O)NCc2ccc3c(c2)OCO3)o1,-1%
Cc1cccc2cc(CN(CCc3ccccc3)C(=O)N3CCOCC3)c3nnnn3c12,6%
COC(=O)Nc1nnc(-c2ccncc2)s1,25µM*
O=C(Nc1cccc(-c2nc3cccnc3s2)c1)c1ccco1,-9%
CCCNC(=O)c1n[nH]c(=O)c2ccccc12,8%
COC(=O)c1[nH]c2ccc(Cl)cc2c1NC(=O)CN1CCc2cc(OC)c(OC)cc2C1,-24%
CCn1nnnc1SCC(=O)Nc1nnc(C(C)C)s1,7%
Cn1c(CCNC(=O)c2cccs2)nnc1SCC(=O)Nc1nc(-c2ccccc2)cs1,2%
COc1ccc(-c2nc3cccc(C)n3c2NCc2ccco2)cc1OC,?
N#CC1=C(N)C(C#N)(C#N)[C@H](c2ccsc2)[C@H]2COCC=C12,280%[activator]
CCOC(=O)CSc1nnc(CNC(=O)c2ccc(S(=O)(=O)N3CCCC3)cc2)n1C,0%
COc1cc(C(=O)Nc2ccc3c(c2)OCCO3)c(-n2cnnn2)cc1OC,-3%
Cc1ccc2oc(=O)c3cc(C(=O)N4CCN(c5ncccn5)CC4)sc3c2c1,-23%
CC(=O)N1CCC2(CCCN(Cc3ccccc3)C2)CC1,4%
CS(=O)(=O)N1CCCC(C(=O)NCc2ccc(F)cc2)C1 (stereo not drawn),10%
O=C(O)c1ccc(OCC(O)Cn2cnc3ccccc32)cc1 (stereo not drawn),6%
Cc1cc(N(C)C)c(C#N)c(N2CCCCC2)n1,-15%

SMILES,HSD17B inhib
Nc1ccc(C23CC4CC(CC(O)(C4)C2)C3)cc1,1%
CSc1nnc2c(n1)OC(c1ccsc1)N(C(C)=O)c1ccccc1-2 (stereo not drawn),4%
c1ccc2c(c1)-c1nc3ccccc3cc1[C@H]2N1CCOCC1,8%[11.4 µM]
CCn1c(=O)cc(OCC(=O)Nc2ccc3c(c2)OCCO3)c2ccccc21,-1%
O=C(CN1CCC(O)(c2ccccc2F)CC1)NCCc1c[nH]c2ccccc12,-19%
O=C(Nc1ccc(S(=O)(=O)N2CCCCCC2)cc1)C1CCCO1 (stereo not drawn),2%
N#Cc1cn(Cc2cccc(Cl)c2)c2ccccc12,102%[activator]
CCOC(=O)C1=C(C)N=C2SCCC(=O)N2C1c1cc(Br)ccc1OC (stereo not drawn),8%
Cc1ccc(C(=O)Nc2sc3c(c2C(=O)O)CCCCC3)o1,-6%
O=C(Nc1ccccc1)Nc1ccc(S(=O)(=O)N2CCCCC2)cc1,-1%
CC(c1nnc(SCC(=O)Nc2ccc3[nH]c(=O)[nH]c3c2)n1Cc1ccccc1)N(C)C (stereo not drawn),-9%
COCC(=O)N1CCC2(CC1)CCN(C(=O)Nc1cccc(F)c1)CC2,2%
O=C(NCc1ccccc1)c1cc(S(=O)(=O)N2CCC3(CC2)OCCO3)ccc1F,2%
O=C1c2cccnc2C(O)N1Cc1ccco1 (stereo not drawn),8%
CCN(CC)CCN1C(=O)C(=O)/C(=C(/O)c2c(C)[nH]c(C(=O)OC)c2C)C1c1ccccc1OC (stereo not drawn),-5%
CSc1nnc2c3c4c(sc3c(=O)n(-c3ccccc3)n12)CC(C)(C)OC4,9%
COC(=O)[C@@H]1C[C@@H]2CC[C@@H](O)C[C@@H]2N1Cc1ccc(Cl)cc1,1%
Cn1c(=O)n(CCc2ccccc2)c(=O)c2c1nc1n2CCN1c1ccccc1,0%
CC(=O)NC(C)C(c1cccs1)N1CCN(c2ccccc2)CC1 (stereo not drawn),11%
O=C(c1c(Cl)nc2sccn12)N1CCN(c2cccc(Cl)c2)CC1,-8%
Cc1ccc(Cn2nnc3c(=O)[nH]c(C4CCN(S(=O)(=O)c5ccc(F)cc5)CC4)nc32)cc1,?
CC[C@H](C)[C@H](NC(=O)OCC1c2ccccc2-c2ccccc21)C(=O)O,?
CCOC(=O)c1c(C)[nH]c(C(=O)O)c1C,7%
O=C(CC1CC2CCC1C2)NCc1cccs1 (stereo not drawn),0%
CCCCCC1CC(CC(C)C(=O)Nc2nncs2)C(=O)O1 (stereo not drawn),-3%

In a second layout: results already given.
Structure: CCOC(=O)C1=C(C)N=C2SCCC(=O)N2C1c1cc(Br)ccc1OC (stereo not drawn)
- HSD17B inhib = 8%
Structure: O=C(CN1CCC(O)(c2ccccc2F)CC1)NCCc1c[nH]c2ccccc12
- HSD17B inhib = -19%
Structure: CSc1nnc2c3c4c(sc3c(=O)n(-c3ccccc3)n12)CC(C)(C)OC4
- HSD17B inhib = 9%
Structure: Cc1ccc(C(=O)Nc2sc3c(c2C(=O)O)CCCCC3)o1
- HSD17B inhib = -6%

Continuation.
SMILES,HSD17B inhib
O=c1ccn([C@@H]2O[C@H](CO)[C@@H](O)[C@H]2O)c(=O)[nH]1,4%
C=CCn1c(SCC(=O)Nc2ccc3c(c2)OCO3)nnc1-c1ccccc1O,11%
CCC1(C)Cc2c(sc3nc(NC)n(C)c(=O)c23)CO1 (stereo not drawn),?
Cn1c(=O)c2c(-c3ccccc3)n(N3CCOCC3)cc2n(C)c1=O,1%
COc1cccc(-c2n[nH]c(=S)n2Cc2ccco2)c1OC,-3%
Cc1ccc(S(=O)(=O)N2CCOCC2)cc1C(=O)Nc1ccccn1,5%
O=C(Cn1c(C(=O)NCc2ccco2)cc2sccc21)c1ccccc1,-10%
O=C(CCn1nnc2ccccc21)N1CCC(O)(c2cccc(F)c2)CC1,-2%
Cc1cccc(CNc2cc(-c3ccc(N(C)C)cc3)ncn2)c1,13µM*
CSc1nc(N)c(C#N)c(-c2ccc(Cl)cc2)c1C#N,25µM*
Cc1c[nH]c(=O)n(CCCN2CCN(c3ccccc3OCC(F)(F)F)CC2)c1=O,5%
Cc1cc(C)n2nc(SCC(=O)Nc3ccc(F)cc3)nc2n1,10%
Cn1c(=O)n(C)c2cc(CNc3ccc(N4CCOCC4)c(C(=O)O)c3)ccc21,25µM*
Nn1c(SCC(=O)Nc2ccc3c(c2)OCO3)nnc1C1CCCCC1,1%
COCCCNC(=O)CS(=O)Cc1nc(-c2ccccc2C)oc1C (stereo not drawn),0%
Nc1c(NCCCN2CCOCC2)c2ccccc2oc1=O,-18%
CCOC(=O)C1CCN(S(=O)(=O)c2cnc[nH]2)CC1,9%
Cn1c(CNc2ccccc2O)nc2ccccc21,-16%
CC(C)COc1ccc(C(=O)OCCN2CCOCC2)cc1,11%
Cn1c(=O)c2cc(NC(=O)c3ccccc3Cl)c(=O)oc2n(C)c1=O,-1%
COCCN=C1OC(=O)N2C(=O)C3=C4C(C[C@H]5C(=O)N(CC(=O)OC)C(=O)[C@H]5[C@H]4[C@@]12Cc1ccccc1)[C@H]1C(=O)N(CC(=O)OC)C(=O)[C@H]1[C@H]3C (stereo partly drawn),15%
CC1CCN(C(=O)Nc2cccc(NC(=O)N3CCC(C)CC3)c2)CC1,1%
CC(=O)N1CCN(c2ccc(NC(=O)c3ccc4c(c3)OCCO4)cc2)CC1,-12%
CCOc1ccc(Cc2nn[nH]n2)cc1,4%
Cc1ccccc1OCCN1C(=O)NC2(CCc3ccccc32)C1=O (stereo not drawn),4%

SMILES,HSD17B inhib
O=C(Oc1ccc2c(c1)OCO2)c1ccncc1,4%
COc1cc2c(cc1OC)C(C(=O)Nc1ccc3c(c1)OCCO3)C1c3ccccc3CCN1C2=O (stereo not drawn),-1%
O=C(CSc1nccn1-c1ccc(F)cc1)Nc1ccc2c(c1)OCO2,-2%
CC(=O)NC(CCS(C)(=O)=O)C(=O)Nc1c(C)cccc1C (stereo not drawn),7%
O=C(Oc1ccc2c(c1)CCC2)N1CCOCC1,14%
COc1ccc(CCNC(=O)Cn2c(=O)cnc3ccccc32)cc1,-15%
Fc1ccc(C2CC(c3ccccc3)Nc3ncnn32)cc1 (stereo not drawn),5%
CC12CCC(C(=O)Nc3cccnc3)(CC1=O)C2(C)C (stereo not drawn),2%
O=C1NCCN1Cc1ccccc1F,-5%
OCCn1c(SC2CCCCC2)nc2ccccc21,4%
Cc1onc(-c2ccccc2)c1C(=O)Nc1ccc2c(C)cc(=O)oc2c1,25µM*
O=C(NCc1nnc(SC/C=C/c2ccccc2)o1)c1ccco1,4%
O=C(Cn1c(=O)oc2cc(S(=O)(=O)N3CCc4ccccc43)ccc21)NC1CCCC1,-8%
COc1ccc(N2CCN(c3ccc(N)cc3C#N)CC2)cc1,?
CCOC(=O)C1CCN(S(=O)(=O)c2c(C)n[nH]c2C)CC1,9%
C/C=C(/C)C#N,4%
Cc1ccc(C)c(NC(=O)CCN2CC(C)OC(C)C2)c1 (stereo not drawn),-1%
O=C(CC1Oc2ccccc2NC1=O)NCCCN1CCCC1=O (stereo not drawn),-10%
Cc1ccc(NS(=O)(=O)c2ccc(C(=O)N3CCCN(C)CC3)cc2)cc1,0%
CC(=O)NCCNc1ncnc2ccc(-c3cccc(NS(C)(=O)=O)c3)cc12,14%
CCC1=C2CC[C@H]3C(=O)N(C)C(=O)[C@H]3[C@H]2[C@@]2(Cc3ccccc3)C(=NCC(=O)OC)OC(=O)N2C1=O,-7%
CC(Oc1ccccc1Cl)C(=O)N(Cc1ccco1)C1CCS(=O)(=O)C1 (stereo not drawn),6%
COc1ccc(NC(=O)CN2CCC(NC(=O)C3CCCCC3)CC2)cc1,2%
O=C(O)CSc1nnc2c3ccccc3c3ccccc3c2n1,-5%[11.4 µM]
Cc1ccccc1-c1cc(NCc2cccnc2)ncn1,11%

SMILES,HSD17B inhib
CCOc1ccccc1NC(=O)CSc1nnc2c(CC)c(C)nc(N)n12,-2%
Cc1cccc(-n2c(Cc3cc(=O)[nH]c(=O)[nH]3)nnc2SCC(=O)NCC2CCCO2)c1 (stereo not drawn),15%
CSc1cccc(NC(=O)CN(c2cc(C)ccc2C)S(C)(=O)=O)c1,-12%
COC(=O)[C@H](Cc1ccccc1)NC(=O)[C@@]1(C)C[C@@H]1[C@@H](NC(=O)OCc1ccccc1)c1ccccc1,10%
CCS(=O)(=O)c1ccc2oc(Nc3ccccc3C)nc2c1,0%
Cc1cc(NC(=O)CCC(=O)N(Cc2ccco2)C2(C(=O)NC3CCCCC3)CCN(C)CC2)no1,11%
O=C(COC(=O)c1ccc2c(c1)OCO2)NCc1ccc(Cl)cc1,-3%
Cc1c(Cl)cccc1N(CC(=O)NC1CCCCC1)S(C)(=O)=O,0%
CCn1c2ccccc2c2nnc(SCC(=O)N3CC(C)OC(C)C3)nc21 (stereo not drawn),-17%
CC(=O)n1nc(-c2ccco2)nc1N,?
O=C(CNS(=O)(=O)c1cccs1)N1CCN(c2ccccn2)CC1,?
COC(=O)C1=[N+]([O-])OC(C(=O)OC)C1c1c[nH]c2ccccc12 (stereo not drawn),-12%
CC(=O)c1c(C)[nH]c(C(=O)OCC(=O)Nc2cc(C)on2)c1C,9%
O=C(c1ccccc1)N1CCN(c2ccc(Cl)cc2)CC1,1%
COc1ncc2nc(-c3ccc(F)cc3)c(=O)n(C[C@H]3CCCO3)c2n1,25µM*
CCOC(=O)C1=C(N)OC2=C(C(=O)CC(C)(C)C2)C1c1cccnc1 (stereo not drawn),4%
Cc1ccc(NC(=O)CCCCCC2NC(=O)NC2C)cc1 (stereo not drawn),?
COc1cc(C(=O)O)ccc1OC(C)=O,11%
CC1(C)C(c2ccc(Cl)cc2)=[N+]([O-])C2(CCCC/C2=N\O)N1O (stereo not drawn),4%
Cc1cc(N2CC(C(=O)O)CC2=O)ccc1Br (stereo not drawn),-5%
CC(=O)Cn1c(CN2CC(C)CC(C)C2)nc2c1c(=O)n(C)c(=O)n2C (stereo not drawn),4%
CCCCNCCOCCOc1ccc(F)cc1,2%
Cc1cc(C(F)F)n2nc(C(=O)NCc3ccccc3F)nc2n1,-4%
Cc1ccc(-c2nn(C)c(=O)c3ccccc23)cc1S(=O)(=O)NCCO,1%
Cc1noc(C)c1S(=O)(=O)Nc1ccc(C(=O)NCc2ccccc2)cc1,8%
COC(=O)C1C(=O)C2=C(CC1C)NC(C)=C(C(=O)OC1CCCC1)C2c1ccc(N(C)C)cc1 (stereo not drawn),21%

Only part of the results is shown; count on the stated rates, not on these rows.
